Bioassay records: PubChem, National Center for Advancing Translational Sciences (NCATS)
HPGD inh: HPGD (human) dehydrogenase inhibition; P15428; 150,000 tested, 4.3% active; purified HPGD, NADH fluorescence kinetic, PGE2 substrate; AID 894; Potency, µM, for the others: top-dose activity change, negative = inhibition, hits mostly inhibitors; active = well fitted inhibition curve with a large enough effect (not every such curve was filed as active); inconclusive = small, poorly fitted or top-dose-only effect, or another doubt; inactive = no such curve, though single readings can be large or run the other way;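 further: top concentration of the series not given in the record; plate controls included wells without enzyme; inactives centre near -10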
Target sequence (P15428 whole entry, looked up): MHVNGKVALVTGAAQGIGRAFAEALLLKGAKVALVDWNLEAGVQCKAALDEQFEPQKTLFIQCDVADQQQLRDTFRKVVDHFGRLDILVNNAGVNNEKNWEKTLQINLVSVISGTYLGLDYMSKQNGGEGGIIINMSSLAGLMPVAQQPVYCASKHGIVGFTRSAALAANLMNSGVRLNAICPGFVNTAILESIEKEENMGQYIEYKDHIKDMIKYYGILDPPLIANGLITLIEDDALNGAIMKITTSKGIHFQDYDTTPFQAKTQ
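NADH formation kinetics: reaction with 30 uM PGE2 and 1 mM NAD+ (final), 20 nM enzyme, Tris-HCl pH 8 with Tween 20, after 15 min compound preincubation at room temperature. Fluorescence change, last versus first of five reads.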
The depositor's hits bear a star; ? = inconclusive; & = joins results of further samples. On the % scale 0 is the no-effect control and ±100 the full control effect; potency means the concentration at half of the fitted maximal effect.

SMILES	HPGD inh
O=C(/C(=C(\[O-])c1ccccc1)[n+]1ccc2ccccc2c1)c1ccc([N+](=O)[O-])cc1	-26.2%
CCOC(=O)c1c(C)[nH]c(C2=NNC(=Nc3ccc(OCC)cc3)SC2)c1C	-16.6%
COc1cc(C)c(Cl)cc1S(=O)(=O)n1ccnc1C	-17.5%
Cc1ccc(OCCCOc2cccc3cccnc23)cc1C	-14.9%
CCc1nnc(NC(=O)CN2C(=O)c3ccccc3S2(=O)=O)s1	0.3%
O=C1CC(Sc2nnc(-c3ccccc3)o2)C(=O)N1c1ccccc1 (configuration not stated)	22.4µM*
CC1CCCN(CC(=O)Nc2cccc([N+](=O)[O-])c2)C1 (configuration not stated)	-9.5%
Cc1nn(C)c(C(=O)N/N=C/c2cccc3ccccc23)c1Cl	-7.4%
C(=C\c1ccccc1)/CSc1nnc(-c2cccnc2)o1	-11.2%
COC(=O)c1csc(C(=O)c2c[nH]c3ccccc23)n1	-13.2%
O=C(O)CSc1nnc(-c2ccncc2)n1C1CCCCC1	-11.7%
CCOC(=O)C1CCN(Cc2cn[nH]c2-c2ccccc2)CC1	-1.7%
CCOCCCN1CC(C(=O)NCCc2ccccc2)CC1=O (configuration not stated)	-4.6%
CNC(=O)CSc1nc2nc(C)cc(C)n2n1	-17.9%
COc1ccc(NC(=O)CC(C)(C)C)c([N+](=O)[O-])c1	-10.2%
O=C1NN(c2ccccc2)C(=O)C2C1C1C=CC2C12CC2 (configuration not stated)	-2.6%
O=C(Cc1ncc(C(F)(F)F)cc1Cl)N1CCN(c2cccc(Cl)c2)CC1	-4.3%
O=C(CCC1CCCC1)N1CCC(N2CCN(c3ccccc3)CC2)CC1	-9.4%
Cc1nn(Cc2ccccc2)c(C)c1NC(=O)CCC(=O)O	2.4%
C=CCn1cccc(/C=C/C(=O)c2ccc(C(C)(C)C)cc2)c1=S	-20.9%

A few values from the list.
`COc1ccc(NC(=O)CC(C)(C)C)c([N+](=O)[O-])c1` in HPGD inh reads -10.2%
`O=C1NN(c2ccccc2)C(=O)C2C1C1C=CC2C12CC2` (configuration not stated) in HPGD inh reads -2.6%
`O=C1CC(Sc2nnc(-c3ccccc3)o2)C(=O)N1c1ccccc1` (configuration not stated) in HPGD inh reads 22.4µM*
`Cc1nn(Cc2ccccc2)c(C)c1NC(=O)CCC(=O)O` in HPGD inh reads 2.4%
`O=C(Cc1ncc(C(F)(F)F)cc1Cl)N1CCN(c2cccc(Cl)c2)CC1` in HPGD inh reads -4.3%
`C=CCn1cccc(/C=C/C(=O)c2ccc(C(C)(C)C)cc2)c1=S` in HPGD inh reads -20.9%

(more compounds)
SMILES	HPGD inh
CCn1c(CC(=O)Nc2ccc(C)c(Cl)c2)nnc1SCc1ccc(Cl)c(Cl)c1	1.4%
CCCn1c(C)cc(C(=O)COC(=O)c2ccc(Cl)c(S(=O)(=O)N3CCCC3)c2)c1C	-7.3%
Clc1ccc(-c2cn3cccnc3n2)cc1	?
Cc1cccc2cc(C(c3nnnn3C(C)(C)C)N(Cc3ccco3)CC3CCCO3)c(=O)[nH]c12 (configuration not stated)	-7.3%
O=S(=O)(NCC(c1cccnc1)N1CCN(c2ccccc2F)CC1)c1cccs1 (configuration not stated)	-9.0%
CCOC(=O)Nc1cc(Br)c2c(c1)OCCO2	14.1µM*
COc1ccc2cc(CN(CCCN3CCOCC3)Cc3nnnn3C3CCCCC3)c(=O)[nH]c2c1	-2.9%
Cc1cnc(CNc2ccnc(-c3ccc(N(C)C)cc3)n2)cn1	?
O=C(NC(=S)N(Cc1ccccc1)c1ccccn1)C1CC1	?
Cc1cc(C)c(CSc2ncc(-c3ccc([N+](=O)[O-])cc3)[nH]2)c(C)c1	-17.1%
CCCOC(=O)CSC1=C(C#N)C(c2ccccc2Cl)CC(=O)N1 (configuration not stated)	-4.1%
COCC(C)n1c(C)cc(C(=O)CSc2nnc(N)s2)c1C (configuration not stated)	-4.4%
CCCCc1nc(S(=O)(=O)c2ccc(Cl)cc2)c(N2CCOCC2)o1	-4.3%
Cc1ccsc1/C=N/NC(=O)c1cc(-c2ccncc2)nc2ccccc12	-20.6%
O=C(Nc1nc2ccccc2s1)c1cc(-c2ccccc2)nn1-c1ccccc1	?
CC(C)N1C2OC(C3OC4C(O3)N(C(C)C)S(=O)(=O)N4C(C)C)OC2N(C(C)C)S1(=O)=O (configuration not stated)	-10.2%
Cc1ccccc1OCC1CN(CN2CCOCC2)C(=O)O1 (configuration not stated)	-1.0%
COC(=O)c1cn(C)c2ccc(S(=O)(=O)N3CCCCC3)cc2c1=O	-8.5%
O=C(CSc1nnc(-c2ccc(NS(=O)(=O)c3ccccc3)cc2)o1)NCC1CCCO1 (configuration not stated)	?
O=C(COC(=O)c1cc(S(=O)(=O)N2CCOCC2)cs1)c1ccccc1	-4.6%

Some of the entries so far, with the structure last:
HPGD inh,Structure
-4.6%,O=C(COC(=O)c1cc(S(=O)(=O)N2CCOCC2)cs1)c1ccccc1
?,O=C(Nc1nc2ccccc2s1)c1cc(-c2ccccc2)nn1-c1ccccc1
-4.3%,CCCCc1nc(S(=O)(=O)c2ccc(Cl)cc2)c(N2CCOCC2)o1
-2.9%,COc1ccc2cc(CN(CCCN3CCOCC3)Cc3nnnn3C3CCCCC3)c(=O)[nH]c2c1
-9.0%,O=S(=O)(NCC(c1cccnc1)N1CCN(c2ccccc2F)CC1)c1cccs1 (configuration not stated)
?,O=C(NC(=S)N(Cc1ccccc1)c1ccccn1)C1CC1

(cont.)
SMILES	HPGD inh
O=C(c1cn(-c2ccccc2)nc1-c1cccs1)N1CCN(c2ccccn2)CC1	?
Cc1ccc(-c2nc(-c3cccnc3)no2)cc1	-19.8%
O=C1c2ccccc2COc2ccc(O)cc21	-11.7%
Cc1cc2c(c(N3CCOCC3)n1)C(=O)OC2	?
O=C(Nc1cccc(NC(=O)N2CCN(c3ccccc3)CC2)c1)N1CCN(c2ccccc2)CC1	-12.2%
CCc1ccc(C(=O)CSc2ncn[nH]2)cc1	?
O=[N+]([O-])c1ccc(/C=C/C2=NN(c3ccccc3)C(c3ccco3)C2)cc1 (configuration not stated)	-15.7%
Cc1ccc(-c2csc(NC(=O)c3ccc(-c4ccccc4)cc3)n2)o1	?
CCOC(=O)C1=C(C)NC(=S)NC1/C=C/c1ccccc1 (configuration not stated)	-14.0%
CC(C)N1C(=O)CCC1C(=O)NCc1ccccc1Cl (configuration not stated)	-4.6%
O=Cc1ccc2noc(-c3ccc(Cl)cc3)c2c1	-23.6%
CCOC(=O)N1CCC(C(=O)Nc2ccc(OCC)cc2)CC1	-3.0%
O=C(CSc1ccc(Cl)cc1)N1CCN(c2c(Cl)cccc2[N+](=O)[O-])CC1	-12.7%
O=C(c1ccc(F)cc1)C1CCN(C(=O)NCc2ccccc2)CC1	-8.3%
O=[N+]([O-])c1cccc(S(=O)(=O)N2CCCCCC2)c1	-12.0%
Cn1cc(CC(=O)N2CCN(c3ccccc3F)CC2)c2ccccc21	0.8%
COc1cccc(S(=O)(=O)N2CCOCC2)c1	-9.1%
CC(C)C(=O)Nc1nnc(SCC(=O)NCc2cccs2)s1	-15.7%
Cc1sc2ncnc(SCC(=O)NNC(=O)COc3cccc4ccccc34)c2c1C	-10.1%
Cc1c(NC(=S)NC(NC(=O)C(C)C)C(Cl)(Cl)Cl)c(=O)n(-c2ccccc2)n1C (configuration not stated)	-4.2%
O=C1c2cccc3cccc(c23)C(=O)N1CC1CCN(CC(O)COc2ccc3ccccc3c2)CC1 (configuration not stated)	-23.0%
CSc1nc2ccccc2s1	-9.1%
CCOC(=O)c1cc(NC(=O)c2cccnc2)cc(C(=O)OCC)c1	-14.6%
O=C(CN(c1ccccc1F)S(=O)(=O)c1ccccc1)N1CCCCCC1	2.5%
CCOC(=O)C(=CNc1cc(C)ccc1C)C(=O)OCC	-7.1%
CCn1c(C)nc2cc(S(=O)(=O)N3CCCC3)ccc21	-5.3%
COc1ccc(C(=O)NCC(C)CN(C)C)cc1 (configuration not stated)	-13.7%
COc1ccc(NS(=O)(=O)c2cc(NC(=O)/C=C/c3cccs3)ccc2N2CCOCC2)cc1	-19.0%
Cc1cccc(C)c1N(CC(=O)Nc1cccc(N(C)S(C)(=O)=O)c1)S(C)(=O)=O	-14.2%
O=C(O)c1ccc(-n2c(-c3ccccc3)n[nH]c2=S)cc1	-17.9%
N#C/C(=C\c1ccc(-c2cccc(C(F)(F)F)c2)o1)C(=O)Nn1cnnc1	1.41µM*
COc1ccc(C2(C(=O)NCCCN(C)C)CCOCC2)cc1	-7.6%
CCCC(c1nnnn1C1CCCC1)N1CCN(c2ccccc2F)CC1 (configuration not stated)	-15.0%
C=CCOC(=O)NC(CC(=Nc1ccc(OC)cc1)C(=O)OC)c1ccccc1 (configuration not stated)	-18.2%
Cc1ccc(S(=O)(=O)NC(=O)COc2ccccc2C(N)=O)cc1	-2.7%
Cc1nc(NC(=O)c2ccc(Cl)cc2)sc1-c1csc(Nc2cccc(F)c2)n1	-14.8%
Cc1ccc(NC(=O)C2CCCN(S(=O)(=O)c3c(C)noc3C)C2)nc1 (configuration not stated)	-4.4%
Cc1cc(NC(=O)Cn2c(=O)n(Cc3ccccc3)c(=O)c3ccccc32)no1	?
Cc1ccccc1NC(=O)c1c(O)c2cccc3c2n(c1=O)CCC3	-11.4%
O=C(CCCCCN1C(=O)CCC1=O)Nc1ccc2c(c1)OCCO2	-13.0%
Cc1cc(C)cc(-n2c(C)cc(/C=C3\C(=N)N4N=C(CC(C)C)SC4=NC3=O)c2C)c1	-14.1%
COc1ccc(Br)cc1CNC(=O)CCc1nc(-c2ccccc2F)no1	-6.4%
COCc1cc(=O)n2[nH]c(-c3ccsc3-n3c(C)ccc3C)cc2n1	-16.5%
COC(=O)c1ccccc1NS(=O)(=O)c1ccc(F)cc1	-28.5%
COc1ccc(-c2nnc3sc(-c4cccs4)nn23)cc1OC	?
O=C(NC1CCCCC1)C(c1ccc2ncccc2c1)N(Cc1ccc2c(c1)OCO2)C(=O)c1cccs1 (configuration not stated)	-14.1%
OCC[n+]1ccc(/C=C/c2c[nH]c3ccccc23)cc1	-14.2%
COc1ccc(C2=Nn3c(nnc3-c3ccccn3)SC2)cc1	-13.0%
CCSc1cc(C2C(C(=O)OC)=C(C)NC3=C2C(=O)CCC3)c(C)o1 (configuration not stated)	-19.5%
COc1cc(S(=O)(=O)N2CCN(c3ccccc3)CC2)ccc1Cl	-6.0%
CCCOc1ccc2ccccc2c1/C=N/n1cnnc1	-12.4%
COc1cccc(NC(=O)CC2SC(=Nc3ccccc3)NC2=O)c1 (configuration not stated)	-11.4%
O=c1ccc2cc3ccoc3cc2o1	-8.8%
Cc1cc(C)c2cc(CN(CCO)Cc3nnnn3Cc3ccc(F)cc3)c(=O)[nH]c2c1	2.8%
O=C(O)c1cccc(NS(=O)(=O)c2ccc3nnn(O)c3c2)c1	-8.0%
COC(=O)N1C(C)=Cc2ccccc2C1C/C(C)=C/C(C)=O (configuration not stated)	-7.7%&-5.4%
Cn1c(=O)c2c(nc(SCC(=O)NCc3ccco3)n2C)n(C)c1=O	-5.7%
CCCCc1ccc(NC(=O)N[C@H](C(=O)O)C(C)C)cc1	-1.3%
Cc1ccccc1NC(=O)c1ccccc1O	?
O=C1CC(SC(=NCc2ccc3c(c2)OCO3)Nc2ccccc2)C(=O)N1c1ccccc1 (configuration not stated)	-1.2%
(list continues)
SMILES	HPGD inh
CN(C)Cc1ccccc1-c1nc(N2CCOCC2)c2ccccc2n1	-6.7%
Cn1c(=O)n(CC(=O)NCc2cccnc2)c2ccccc21	-5.7%
COc1ccc(C(=O)NC(=O)N2CCCCC2)cc1	-28.7%
CCc1ccccc1NC(=O)c1nnn(CC(=O)Nc2cccc(C)c2C)c1N	?
Cc1cc(NC(=O)COC(=O)c2cccc(S(=O)(=O)N3CCOCC3)c2)no1	-5.8%
COc1ccc(C(=O)N2CCCC(C(=O)N3CCCCCC3)C2)cc1 (configuration not stated)	-16.2%
COc1ccc2nc(N3C(=O)/C(=C/c4ccccc4)NC3=S)sc2c1	?
Cc1ccc(N2C(=S)N=C(Nc3ccccc3C)C23CCOC(C)(C)C3)cc1 (configuration not stated)	-2.4%
CSc1nnc2n(Cc3ccccc3)c(=O)c3c4c(sc3n12)COC(C(C)C)C4 (configuration not stated)	-12.6%
CN(CC(=O)Nc1ccc(C#N)cc1)Cc1ccc(Cl)cc1	5.3%
CCCC(=O)c1c[nH]c(C(=O)NCCCN2CCOCC2)c1	-8.4%
Cc1ccc2cccc(S(=O)(=O)Nc3ccc4c(c3)OCO4)c2n1	-6.1%
CC1(C)CC(=O)C2=C(C1)OC(=O)C2(NC(=O)c1cccs1)C(F)(F)F (configuration not stated)	4.2%
COc1ccccc1N(CN1C(=O)c2ccccc2C1=O)C(=O)c1cccc(C)c1	-10.5%
Cn1c(=O)c(NC(=O)c2ccccc2)c2n(c1=S)CCCCC2	-18.1%
CSc1ccc(C(=O)c2[nH]c(=O)[nH]c2C)cc1	?
CCn1c(SCC(=O)N/N=C/C=C/c2ccccc2[N+](=O)[O-])nnc1-c1ccc(Cl)cc1	-18.9%
CCCc1nc(N)c(C#N)c(-c2cccnc2)c1CC	-17.8%
Nc1nc(-c2ccc3c(c2)NC(=O)CO3)cs1	17.8µM*
COc1cc(NC(=O)CSc2ncnc3c2cnn3Cc2ccccc2)cc(OC)c1	-16.2%
C/C=C/CSc1nc2c(c(=O)[nH]c(=O)n2C)n1C(C)C	-16.5%
Cc1ccc(C(=O)NCC(=O)OCC(=O)Nc2ncc(C(F)(F)F)cc2Cl)cc1	-14.4%
Cc1cc(C)c(S(=O)(=O)NCCn2ccc3ccccc32)c(C)c1	-8.5%
Cn1c(CNC(=O)c2cccs2)n[nH]c1=S	2.5%
COC(=O)C1=CO[C@@H](C)[C@H]2CN3CCc4c([nH]c5ccccc45)[C@@H]3C[C@H]12	-15.9%&-13.9%

Some of the compounds tested (hit frequency here may not be typical).
